VCAM-1 down = suppression of endothelial VCAM-1 upregulation – cell-based, plate reader, pooled HUVEC, TNFa stimulus (AID 454). actives 0.2% (n = 10,000). inhibition, % at 5 µM. HUVEC TNFa-induced VCAM-1 surface immunofluorescence, plate reader; numbers were filed only for top-ranked candidate wells;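 active means compound among top-ranked inhibitors of TNF-induced VCAM-1 adhesion protein staining, with the hit upheld by image or statistical review; inactive means the rest, including hits rejected on review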;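 further: 0% = TNFa with vehicle and 100% = cells without TNFa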
FPR ligand = human FPR ligand, with FPRL1 counter-screen | P21462 | FPR-expressing cells, fluorescent ligand binding, flow cytometry | inhibition, %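 (tested at 6.7 µM)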 | actives 0.74% (n = 24,000) | AID 440;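 further: 0% = buffer wells and 100% = receptor blocker peptide wells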
Target sequence (P21462 whole entry, looked up): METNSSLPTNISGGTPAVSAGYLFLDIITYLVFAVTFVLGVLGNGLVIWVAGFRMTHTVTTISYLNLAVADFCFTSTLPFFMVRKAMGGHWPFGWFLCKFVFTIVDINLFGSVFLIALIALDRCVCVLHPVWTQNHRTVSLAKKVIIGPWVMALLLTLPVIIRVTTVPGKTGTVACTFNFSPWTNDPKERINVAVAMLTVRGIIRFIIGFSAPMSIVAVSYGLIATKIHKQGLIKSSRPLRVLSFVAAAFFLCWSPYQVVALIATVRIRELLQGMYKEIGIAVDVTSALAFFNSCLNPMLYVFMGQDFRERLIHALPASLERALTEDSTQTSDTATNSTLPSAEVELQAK
FPRL1 ligand = binds the human formylpeptide receptor-like-1 FPRL1 | FPRL1-expressing cells, fluorescent ligand binding inhibition, flow cytometry | inhibition, %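 (tested at 6.7 µM)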 | actives 0.3% (n = 24,000) | AID 441;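 further: 0% = buffer alone and 100% = receptor blocker peptide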
Target sequence (P25090 whole entry, looked up): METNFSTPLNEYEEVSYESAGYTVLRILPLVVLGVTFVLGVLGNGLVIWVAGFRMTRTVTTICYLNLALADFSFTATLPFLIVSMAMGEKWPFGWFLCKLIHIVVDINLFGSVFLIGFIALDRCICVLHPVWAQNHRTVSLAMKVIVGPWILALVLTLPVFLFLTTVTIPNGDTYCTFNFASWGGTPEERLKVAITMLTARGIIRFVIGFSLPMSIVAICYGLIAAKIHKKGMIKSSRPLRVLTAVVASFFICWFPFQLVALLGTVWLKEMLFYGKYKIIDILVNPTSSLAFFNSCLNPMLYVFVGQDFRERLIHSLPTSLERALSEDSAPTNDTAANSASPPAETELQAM
VCAM-1 down imaging = suppression of endothelial VCAM-1 upregulation – imaging, high-content imaging, pooled HUVEC, TNFa stimulus (AID 456). HUVEC TNFa-induced VCAM-1 surface expression, immunofluorescence imaging; numbers were filed only for top-ranked candidate wells. actives 0.2% (n = 10,000). one-dose inhibition, % at 5 µM; IC50 in µM for titrated hits;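 active means top tenth filtered wells with inhibition above zero that passed visual or statistical confirmation; inactive means the rest, including hits rejected on review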;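 further: 0% = stimulated vehicle wells and 100% = unstimulated cells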
VCAM-1 augmentation = boosters of cytokine-driven VCAM-1 levels – imaging, high-content imaging, pooled HUVEC, TNFa stimulus (AID 457); Pooled HUVEC, TNFa-induced VCAM-1 immunofluorescence imaging; hits of this screen are not shown here; calls only; actives 0.2% (n = 10,000);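 active means a top-ranked rise in VCAM-1 staining upheld on image or statistical review; inactive means the rest, including candidates rejected on review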;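 further: compounds tested at 5 µM in the well; cells exposed to compound for 24 hours before fixing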
* = called active by the depositor; i = inactive; . = not tested or not shown.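 How the source made its calls, unless noted: active means mean above 30%; inconclusive means self-fluorescent; inactive means the rest.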 These rows are one share of the data; the hit share may differ from the screen's.

The opening 3 entries, to show the layout:
SMILES	VCAM-1 down	FPR ligand	FPRL1 ligand	VCAM-1 down imaging	VCAM-1 augmentation
CCCC(=O)Nc1ccccc1NC(=O)CCC	i	-2	3	i	i
Cc1nc(NC(=O)C2CC3CCCC(C2)C3=O)sc1C (centres undefined)	i	-3	2	i	i
OC(Cc1nc2ccccc2[nH]1)c1ccccc1Cl (centres undefined)	.	-3	4	.	.

Results, repeating the preview:
SMILES	VCAM-1 down	FPR ligand	FPRL1 ligand	VCAM-1 down imaging	VCAM-1 augmentation
CCCC(=O)Nc1ccccc1NC(=O)CCC	i	-2	3	i	i
Cc1nc(NC(=O)C2CC3CCCC(C2)C3=O)sc1C (centres undefined)	i	-3	2	i	i
OC(Cc1nc2ccccc2[nH]1)c1ccccc1Cl (centres undefined)	.	-3	4	.	.
Cc1ccc(-c2nn3c(C)nnc3s2)cc1N	i	2	0	i	i
O=C(CCCn1c(=S)[nH]c2cc3c(cc2c1=O)OCO3)NC1CC1	.	10	-4	.	.
Cc1csc(NC(=O)C2CCCO2)n1 (centres undefined)	i	-2	1	i	i
COc1ccc(OC)c(N=Cc2c(O)[nH]c3ccccc23)c1	.	-5	2	.	.
Cc1ccc(-c2nn3c(C)nnc3s2)cc1NC(=O)c1ccc(OC(C)C)cc1	.	6	0	.	.
CC(=O)N1CCc2cc(Br)cc(S(=O)(=O)N3CCCCCC3)c21	.	2	-26	.	.
CCCCc1nc2n[nH]c(N)c2c2c1CCCC2	i	2	6	i	i
CCc1nc(SCC(=O)Nc2ccc(C(=O)O)cc2)n[nH]1	.	0	3	.	.
c1ccc(-c2nc3cnccn3c2Nc2ccc3c(c2)OCCO3)cc1	i	12	-3	i	i
Cc1ccc(C)c(N2CCN(C(=O)C3CCCN(S(=O)(=O)c4c(C)noc4C)C3)CC2)c1 (centres undefined)	.	8	-2	.	.
CCCN1CCN(C(=O)CN2C(=O)CC(C)(C)S(=O)(=O)c3ccccc32)CC1	.	-23	-3	.	.
CCCCN(C)C(=O)c1sc2ncn(CC)c(=O)c2c1C	.	-5	-3	.	.
COc1ccc(-c2nc(CSCC(=O)N3CCc4ccccc4C3)c(C)o2)cc1OC	i	8	1	i	i
COc1ccccc1-n1c(CNC(=O)COc2ccccc2)n[nH]c1=S	.	-13	-1	.	.
Cc1nc2sc(C#N)c(N)c2c2c1CCCC2	i	2	-3	i	i
Cc1nc2c(-c3ccccc3)c(C)nn2c(C)c1CCC(=O)N1CCOCC1	.	-3	13	.	.
COc1ccc(CCN(C)CCCC(C#N)(c2cc(OC)c(OC)c(OC)c2)C(C)C)cc1OC (centres undefined)	i	-5	1	i	i
O=C(OCCCCN1C(=O)c2ccccc2C1=O)c1n[nH]c2ccccc12	i	-2	-2	i	i
O=C(NCc1nnc(SCC(=O)N2CCCCCC2)o1)c1ccco1	i	-3	-6	i	i
O=C(CCCCn1c(=O)c2ccccc2n(CC(=O)NC2CCCC2)c1=O)NC1CCCC1	.	4	-10	.	.
CCS(=O)(=O)NCCc1csc(-c2ccccc2)n1	.	-7	-2	.	.
CCn1ncc(C2=NOC(C(=O)Nc3cccc(C(C)=O)c3)C2)c1C (centres undefined)	.	-3	8	.	.

Reformatted in markdown: entries from further up.
| compound | VCAM-1 down | FPR ligand | FPRL1 ligand | VCAM-1 down imaging | VCAM-1 augmentation |
| --- | --- | --- | --- | --- | --- |
| O=C(OCCCCN1C(=O)c2ccccc2C1=O)c1n[nH]c2ccccc12 | i | -2 | -2 | i | i |
| O=C(NCc1nnc(SCC(=O)N2CCCCCC2)o1)c1ccco1 | i | -3 | -6 | i | i |
| O=C(CCCCn1c(=O)c2ccccc2n(CC(=O)NC2CCCC2)c1=O)NC1CCCC1 | . | 4 | -10 | . | . |
| CCS(=O)(=O)NCCc1csc(-c2ccccc2)n1 | . | -7 | -2 | . | . |
| CCn1ncc(C2=NOC(C(=O)Nc3cccc(C(C)=O)c3)C2)c1C (centres undefined) | . | -3 | 8 | . | . |

Next records follow:
SMILES	VCAM-1 down	FPR ligand	FPRL1 ligand	VCAM-1 down imaging	VCAM-1 augmentation
O=c1ccc(Br)c[nH]1	.	-4	1	.	.
Cc1c2c(n3c(nc4ccccc43)c1C#N)N(Cc1ccccn1)CC2	.	3	15	.	.
Cc1cc(Nc2ccc(Br)cc2)n2nc(C)nc2n1	.	-4	-6	.	.
Cn1cnnc1SCC(=O)Nc1ccc2nc(SCc3ccccc3)sc2c1	.	4	-10	.	.
CC(C)n1c(CN2CCN(C)CC2)nc2c1c(=O)n(C)c(=O)n2C	i	8	6	i	i
CCOc1ccc(-c2nc(CSCC(=O)N3CCN(C(=O)c4ccco4)CC3)c(C)o2)cc1	.	5	2	.	.
Cc1cc(NC(=O)c2cccc(COc3ccc(Br)cc3)c2)no1	.	3	-2	.	.
COc1ccc(Cl)cc1-n1c(N)c(C(N)=O)sc1=S	.	-5	3	.	.
COC(=O)C1=C(NC(=O)c2cccc(OC)c2)CCS1	.	2	-8	.	.
CCN(CC(=O)Nc1ccc(S(N)(=O)=O)cc1)S(=O)(=O)c1cc(C)ccc1OC	i	1	1	i	i
CC1(C)CC(=O)C(CCC(=O)c2ccccc2)C(C)(C)N1 (centres undefined)	.	6	11	.	.
CCOC(=O)Cc1nnc2c(Nc3ccccc3F)nc3nonc3n12	i	5	2	i	i
COc1ccc(Oc2c(C)oc3cc(OC(=O)N4CCOCC4)ccc3c2=O)cc1	i	1	6	i	i
Cc1ccc(NC(=O)CN(C)S(=O)(=O)c2cccc3nsnc23)cc1C	.	1	-2	.	.
COc1cc(Cn2cnnn2)ccc1O	.	1	1	.	.
Cc1cc(C)n2nc3nc(N4CCCC4)nc(-c4ccccc4)c3c2n1	.	3	-1	.	.
O=C(Nc1nc2ccc(S(=O)(=O)N3CCCC3)cc2s1)C1CCCO1 (centres undefined)	i	10	-5	i	i
Cc1cc(N2C(=O)C(O)=C(C(=O)c3ccco3)C2c2cccnc2)no1 (centres undefined)	.	30	30*	.	.
CCCCCn1c(=O)[nH]c2cc(C(=O)NCCCN3CCCCC3)ccc2c1=O	i	-2	-9	i	i
COC(=O)c1[nH]c2ccc(C)cc2c1NC(=O)CN1CCCc2ccccc21	i	8	2	i	i
COc1ccc(-c2nc(CS(=O)CC(=O)NCc3ccco3)c(C)o2)cc1 (centres undefined)	.	0	-1	.	.
COc1ccc(OC)c(S(=O)(=O)N2CCC(C(=O)NCc3ccccc3OC)CC2)c1	i	-1	2	i	i
CCN1CCCC1CNC(=O)c1ccc(N2CCCC2=O)cc1 (centres undefined)	.	-4	2	.	.
c1ccc(CCNc2nc3ccccc3n3nnnc23)cc1	.	1	-6	.	.
Cn1nnc2cc(C(=O)N3CCCCCC3)ccc21	i	-1	-2	i	i

Next section.
SMILES	VCAM-1 down	FPR ligand	FPRL1 ligand	VCAM-1 down imaging	VCAM-1 augmentation
O=C(Nc1ccncc1)c1cc2ccccc2o1	i	-8	-2	i	i
CCOC(=O)c1ccn(-c2nc(-c3ccco3)cc(C(F)(F)F)n2)n1	.	5	2	.	.
C=CCOC(=O)C1=C(C)OC(N)=C(C#N)C1c1ccccc1F (centres undefined)	.	-2	-7	.	.
COc1cccc(-c2cc(C(=O)NCCc3ccccc3)no2)c1	.	-6	-5	.	.
O=C(NCc1ccco1)c1cc2ccccc2c(=O)o1	.	3	-1	.	.
O=C(Nc1ccc2c(c1)OCO2)c1nn(-c2ccccc2)c(=O)c2ccccc12	i	4	3	i	i
CCOC(=O)CN1C(=O)C(CC)Oc2ccc(Cl)cc21 (centres undefined)	.	-3	-1	.	.
CNC(=O)C1CCC(=O)N1Cc1ccc(C)cc1 (centres undefined)	.	3	8	.	.
CCOc1ccccc1NC(=O)N1C2CCCC1CC(NC(=O)C1CC1)C2 (centres undefined)	i	0	-2	i	i
O=c1c(-c2ccccc2)coc2c(CN3CCOCC3)c(O)ccc12	i	-6	6	i	i
Cc1cc2ncn(C(=O)N3CCOCC3)c2cc1C	i	6	4	i	i
O=C(NCCN1CCOCC1)c1cc2sccc2n1Cc1ccc(F)cc1	.	-6	-2	.	.
COc1ccc(-c2nn(C)c3sc(C(=O)NCc4ccco4)cc23)cc1OC	.	3	9	.	.
Cc1ccccc1OCC(=O)Nc1ccc2c(c1)OCO2	.	-1	-1	.	.
Cc1noc(C)c1S(=O)(=O)N1CCC(C(=O)N2CCN(c3ccc(F)cc3)CC2)CC1	.	9	4	.	.
O=C1c2ccccc2S(=O)(=O)N1CC(O)Cn1c2ccccc2c2ccccc21 (centres undefined)	i	-5	8	i	i
Cc1c(/C(O)=C2/C(=O)C(=O)N(CCCN3CCOCC3)C2c2ccncc2)cnn1-c1ccccc1 (centres undefined)	.	5	0	.	.
FC(F)(F)c1ccc2c(c1)nc1n2CCCC1	.	-6	-1	.	.
Cc1cc(C(=O)N2CCc3ccccc32)n(-c2ccccc2)n1	.	5	-1	.	.
O=C(NCc1cccs1)C1CCCN(S(=O)(=O)c2cccs2)C1 (centres undefined)	.	-4	2	.	.
O=S(=O)(NC1CCCCC1NS(=O)(=O)c1ccc(F)cc1)c1ccc(F)cc1 (centres undefined)	i	-1	-4	i	i
O=C(c1ccc(COc2c(F)c(F)c(F)c(F)c2F)o1)N1CCOCC1	i	1	-2	i	i
Cc1ccc(-c2nnc(SCC(=O)Nc3ccccc3F)o2)cc1	.	0	-1	.	.
O=C(CN1CCN(S(=O)(=O)c2ccc(Cl)cc2)CC1)Nc1ccc2c(c1)OCCO2	.	3	-2	.	.
Cc1c(C(=O)O)oc2ccc(S(=O)(=O)NCc3ccc4c(c3)OCO4)cc12	.	12	4	.	.

Next part.
SMILES	VCAM-1 down	FPR ligand	FPRL1 ligand	VCAM-1 down imaging	VCAM-1 augmentation
O=C(CN1C(=O)c2ccccc2C1=O)Nc1ccccc1C(=O)N1CCCC1	i	0	-3	i	i
O=C(CCSCCc1ccncc1)NCCCN1CCOCC1	.	-4	1	.	.
Cc1nc2ccc(S(=O)(=O)NC(C(=O)NCc3cccs3)C(C)C)cc2s1 (centres undefined)	i	-1	2	i	i
CCc1nc2ccccc2c(=O)n1CCCCn1c(CC)nc2ccccc2c1=O	.	-5	-12	.	.
CC(=O)Nc1ccc(N=Cc2nc(-c3ccc(C)cc3)oc2O)cc1	i	-11	-4	i	i
COc1ccc(N(CC(=O)NC2CCCCC2)S(=O)(=O)c2cccnc2)cc1	.	-3	-3	.	.
O=C1Nc2cc(Cl)cnc2N2CCCC12 (centres undefined)	.	-4	-3	.	.
COc1ccc(NC(=O)CCNC(=O)Cn2cnc3ccccc3c2=O)c(OC)c1	.	-4	-3	.	.
CCOC(=O)C(C)Sc1nnc(Cc2cc(=O)[nH]c(=O)[nH]2)n1-c1cccc(OC)c1 (centres undefined)	.	-15	-4	.	.
NC(=O)CSc1nnc(-c2cc3ccccc3o2)n1Cc1ccccc1	i	2	-5	i	i
CNc1ccc(C(O)(C(F)(F)F)C(F)(F)F)cc1C(O)(C(F)(F)F)C(F)(F)F	i	-8	-15	i	i
Cc1ccccc1Cn1nc(C)c(NC(=O)c2cc(-c3cccs3)on2)c1C	.	3	-4	.	.
COc1ccc(S(=O)(=O)NCCC(=O)NCc2cccs2)cc1	.	-1	7	.	.
O=C(CSc1nc2ccccc2n1CC(=O)N1CCCC1)Nc1nccs1	i	-9	3	i	i
CCOC(=O)C1CCN(C(=O)c2cnn3c(C)cc(C)nc23)CC1	.	2	1	.	.
CCCCCn1c(S(=O)(=O)O)nc2ccccc21	.	-1	-8	.	.
CCn1c(=O)cc(SCC(=O)N2CCN(C(=O)c3ccco3)CC2)c2ccccc21	.	2	2	.	.
CCOc1ccc(/C(O)=C2\C(=O)C(=O)N(CCOCCO)C2c2ccccc2OC)cc1 (centres undefined)	.	-8	5	.	.
CCOC(=O)N1CCC(NC(=O)c2cc3cc4cc(OC)ccc4nc3o2)CC1	.	0	-7	.	.
CCn1c(SCC(=O)N2CCN(c3ccc(Cl)cc3)CC2)nc2ccccc2c1=O	i	-11	6	i	i
CCOc1ccc(OCC)c(NC(=O)CN(C)S(=O)(=O)c2cnc[nH]2)c1	.	1	4	.	.
COc1cccc(-n2c(SCC(=O)N3CCCC3)nc3c([nH]c4ccccc43)c2=O)c1	i	1	0	i	i
COCCn1c(SCC(=O)N(C(C)C)C(C)C)nnc1-c1cc2ccccc2cc1O	i	-2	1	i	i
CCOc1ccccc1NC1c2ccccc2C(=O)N1c1cccnc1 (centres undefined)	.	-3	0	.	.
CC(NC(=O)c1ccncc1)C(c1cccs1)N1CCOCC1 (centres undefined)	.	2	-4	.	.

2 of the compounds above, as a markdown table:
| Compound | VCAM-1 down | FPR ligand | FPRL1 ligand | VCAM-1 down imaging | VCAM-1 augmentation |
| --- | --- | --- | --- | --- | --- |
| CC(=O)Nc1ccc(N=Cc2nc(-c3ccc(C)cc3)oc2O)cc1 | i | -11 | -4 | i | i |
| COc1ccc(N(CC(=O)NC2CCCCC2)S(=O)(=O)c2cccnc2)cc1 | . | -3 | -3 | . | . |

Screens from PubChem BioAssay.
